KCNQ2 block: KCNQ2 potassium channel inhibitors, primary screen, cell-based, CHO-K1, FluxOR thallium flux, B-score (AID 2156). Potassium voltage-gated channel subfamily KQT member 2 (Rattus norvegicus), O88943. 20 min; hits give low values; only compounds with negative scores are shown here; some inactives read as strong as hits. B-score at 10 µM. hit rate 1.1% among 310,000;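 active = fluorescence ratio B-score at most minus 3 library SDs, with starting brightness B-score within 2 library SDs, cut at about -5.5 in these data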
Target sequence (O88943 whole entry, looked up): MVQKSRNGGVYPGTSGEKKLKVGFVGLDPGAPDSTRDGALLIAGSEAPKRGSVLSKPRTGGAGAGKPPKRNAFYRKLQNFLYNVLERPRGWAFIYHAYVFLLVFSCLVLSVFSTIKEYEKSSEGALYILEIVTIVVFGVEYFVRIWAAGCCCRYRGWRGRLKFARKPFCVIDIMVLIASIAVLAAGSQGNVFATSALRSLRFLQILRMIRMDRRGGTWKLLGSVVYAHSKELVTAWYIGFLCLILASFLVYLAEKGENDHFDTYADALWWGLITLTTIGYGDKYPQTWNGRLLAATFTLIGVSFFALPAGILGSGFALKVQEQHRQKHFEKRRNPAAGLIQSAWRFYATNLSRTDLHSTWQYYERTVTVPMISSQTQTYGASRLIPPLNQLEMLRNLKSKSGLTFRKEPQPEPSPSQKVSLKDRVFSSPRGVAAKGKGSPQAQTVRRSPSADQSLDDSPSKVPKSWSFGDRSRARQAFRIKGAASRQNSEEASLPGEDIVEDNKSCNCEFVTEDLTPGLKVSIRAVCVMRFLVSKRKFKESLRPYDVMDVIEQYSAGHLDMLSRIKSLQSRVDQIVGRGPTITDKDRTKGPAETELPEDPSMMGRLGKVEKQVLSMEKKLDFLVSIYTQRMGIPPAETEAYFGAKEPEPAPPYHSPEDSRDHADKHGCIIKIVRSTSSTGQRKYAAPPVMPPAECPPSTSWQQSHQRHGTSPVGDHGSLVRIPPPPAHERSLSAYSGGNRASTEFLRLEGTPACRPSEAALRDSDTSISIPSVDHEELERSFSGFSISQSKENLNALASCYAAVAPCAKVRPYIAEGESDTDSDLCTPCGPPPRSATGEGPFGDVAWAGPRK
KCNQ2 block baseline: second read-out of KCNQ2 block, no call of its own (marks repeat the call); B-score; measured here: initial fluorescence intensity artifact check;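 brightness before thallium and not channel activity; 0 = typical well and far values either way flag optical interference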
An asterisk follows results filed as active; i = inactive. The list is partial; the hit share may differ from the screen's.

KCNQ2 block,KCNQ2 block baseline,structure
i,-0.48,CCOc1ccc(NC(=O)CNC(=O)c2ccc(OC)cc2)cc1
i,-0.01,CCOC(=O)C1CCN(C(=O)c2ccc(Oc3cc(Cl)cc(Cl)c3)o2)CC1
i,-3.19,CCOc1ccccc1N1CCN(C2=C(NS(=O)(=O)c3cccs3)C(=O)c3ccccc3C2=O)CC1
i,0.79,CC1(O)N(CCC(=O)Nc2cccc(F)c2)C(=O)OC12CCCCC2 (stereo not drawn)
i,-0.03,Cc1ccc(NC(=O)Cn2c([N+](=O)[O-])cnc2C)cc1Cl
i,-0.67,CC(OCC(O)CN(C)CCOc1ccccc1)c1ccc(Cl)cc1 (stereo not drawn)
-7.13*,1.23*,COc1cccc(NC(=O)c2cc3cccc(OC)c3o/c2=N\O)c1
i,1.21,O=C(COC(=O)Cc1ccsc1)Nc1ccc(S(=O)(=O)N2CCOCC2)cc1
i,-0.06,CCCc1cc(=O)n(-c2nc3ccccc3s2)[nH]1
i,-2.15,COc1cc(/C=N\NC(=O)C(C)(C)O)ccc1OC/C=C/c1ccccc1
i,-0.26,C=CCn1c(=O)c(C(=O)Nc2ccc(C)cc2)c(O)c2ccccc21
i,0.81,CCOc1ccc(NC(=O)CSc2nnc(-c3cc(C)[nH]n3)n2N)cc1

Fetched by structure from above, 3 records:
KCNQ2 block,KCNQ2 block baseline,structure
i,-0.03,Cc1ccc(NC(=O)Cn2c([N+](=O)[O-])cnc2C)cc1Cl
i,-0.67,CC(OCC(O)CN(C)CCOc1ccccc1)c1ccc(Cl)cc1 (stereo not drawn)
i,-0.01,CCOC(=O)C1CCN(C(=O)c2ccc(Oc3cc(Cl)cc(Cl)c3)o2)CC1

Compound profiles, from the list above.
O=C(COC(=O)Cc1ccsc1)Nc1ccc(S(=O)(=O)N2CCOCC2)cc1 as listed: KCNQ2 block = i; KCNQ2 block baseline = 1.21
CC(OCC(O)CN(C)CCOc1ccccc1)c1ccc(Cl)cc1 (stereo not drawn) as listed: KCNQ2 block = i; KCNQ2 block baseline = -0.67
Cc1ccc(NC(=O)Cn2c([N+](=O)[O-])cnc2C)cc1Cl as listed: KCNQ2 block = i; KCNQ2 block baseline = -0.03

Further entries follow.
KCNQ2 block,KCNQ2 block baseline,structure
i,1.39,Cc1ccc(/C=N/Nc2cccc3cccnc23)c(O)c1
i,0.61,C=CCN=C1NN=C(c2cc(C)n(CCOC)c2C)CS1
i,-1.13,COc1cccc(NC(=O)CCCn2nc(C)c3c(C)n(-c4ccccc4)nc3c2=O)c1
i,0.26,CCn1c(CNC(C)=O)nnc1SCC(=O)c1ccc(Br)cc1
i,-0.15,COc1ccc2oc(=O)cc(CN3CCN(Cc4ccc(OC)c(OC)c4OC)CC3)c2c1
i,0.98,Cc1ccc(CCNC(=O)c2cc(S(=O)(=O)N3CCCC3)cn2C)cc1
i,-0.19,COc1cc(NC(=O)c2cc(-c3cccnc3)nc3ccc(Br)cc23)cc(OC)c1
i,-0.04,Cc1cc(C)cc(OCC(=O)Nc2ccccc2C(=O)NCc2ccco2)c1
i,-0.56,Cc1ccnc2nc(C(=O)NCCc3ccc(F)cc3)nn12
i,-0.15,O=C(OCC1OC(n2ccc(=O)[nH]c2=O)C(O)C1OC(=O)c1ccccc1)c1ccccc1 (stereo not drawn)
i,0.45,COc1ccc(CCNC(=O)C2CCN(S(=O)(=O)c3ccc(C)cc3)CC2)cc1
i,1.27,O=C(c1cccc(Cl)c1)C1CCCN(S(=O)(=O)c2ccccc2)C1 (stereo not drawn)
i,0.25,COCCNC(=S)N1CCc2cc(OC)c(OC)cc2C1COc1ccc(C(C)C)cc1 (stereo not drawn)
i,1.97,Cc1cccn2c(=O)c3cc(S(=O)(=O)c4ccccc4)c(=N)n(Cc4ccco4)c3nc12
i,-3.25,COc1cc(C(NC(C)=O)NC(C)=O)ccc1OCc1ccccc1
i,-0.01,O=C(CCC(=O)OCC(=O)c1ccccc1)Nc1cccc(Cl)c1
i,-0.41,CCOC(=O)C1C(=O)NC(c2ccccc2)=NC1c1ccc(O)c(OC)c1 (stereo not drawn)
i,1.39,CCOC(=O)c1ccc(NCc2cccnc2)cc1
i,1.12,CCOc1ccccc1NC(=O)c1csc(C)c1C
i,-0.23,Nn1c(Cc2cccc3ccccc23)nnc1SCC(=O)NCC1CCCO1 (stereo not drawn)
i,1.04,OCc1ccccc1SSc1ccccc1CO
i,0.36,COc1cc(Cl)ccc1OCc1cc(C(=O)N2CC[C@@H]3CCCC[C@H]3C2)no1
i,-0.7,CCOC(=O)CN(C(=O)Cn1nnc(-c2ccc(C)cc2)n1)C(CC)C(=O)NC1CCCC1 (stereo not drawn)
i,-0.19,CCCCC(CCC(=O)O)(C(=O)OCC)c1csc(N)n1 (stereo not drawn)
i,1.79,O=C(NCC1CCCO1)c1cc(-c2ccncc2)nc2ccc(S(=O)(=O)N3CCOCC3)cc12 (stereo not drawn)
i,-0.19,O=S(=O)(c1ccc(N2CCN(CCO)CC2)nc1)N1CCCCC1
i,1.5,CCOc1ccccc1NC(=S)NC(=O)C1CCCCC1
i,0.65,Cc1[nH]c2ccc(-c3nnc(SCC(=O)NCc4ccco4)n3Cc3ccccc3)cc2c1C
i,1.35,CCc1ccc(N(CC(=O)Nc2ccc(NC(C)=O)cc2)S(=O)(=O)c2ccccc2)cc1
i,-0.09,Cn1c(NCCCN2CCOCC2)nc2c1c(=O)n(Cc1ccc(Cl)c(Cl)c1)c(=O)n2C
i,-1.93,Cc1cc(C)c(C)c(S(=O)(=O)N2CCN(C(=S)NCC3CCCO3)CC2)c1C (stereo not drawn)
i,-1.72,O=C(Nc1nc2ccccc2s1)C1CCN(C(=O)c2ccco2)CC1
i,-0.34,Cc1nc(-c2ccc3c(c2)OCCO3)cs1
i,0.62,O=C(c1ccco1)N1CCN(c2cccc(Cl)c2)CC1
i,-0.12,O=S(=O)(c1cccc(-c2cn3ccccc3n2)c1)N1CCCCC1
i,-1.18,Cc1ccc(Cn2ccc(NC(=O)c3nn(C)cc3Cl)n2)cc1
i,-0.04,COc1ccc2c(c1)c(/C=N/Nc1nc3ccccc3[nH]1)c(C)n2C
i,-0.45,Cc1cc(C)c(O)c(-c2n[nH]c3c2C(c2cccc(O)c2)N(Cc2ccco2)C3=O)c1 (stereo not drawn)
i,-1.07,C/C(=N\O)C1CC(CC(=O)O)C1(C)C (stereo not drawn)
i,12.4,CCN(CC)c1ccc2cc(C(=O)NCc3ccc(F)cc3)c(=N)oc2c1
i,0.85,CCOc1ccc(NS(=O)(=O)c2cc(C(=O)NCC3CCCO3)ccc2Cl)cc1 (stereo not drawn)
i,0.89,O=C(O)C1CC=CCC1C(=O)Nc1ccccc1C(=O)N1CCN(c2ccccc2)CC1 (stereo not drawn)
i,0.51,COc1ccc(S(=O)(=O)N2CCN(C(=O)N3CCOCC3)C2C)cc1 (stereo not drawn)
i,0.15,O=C(NCc1ccc(-c2csnn2)cc1)C1CC1
i,6.68,COc1ccc(OC)c(C2C3CN(C(C)C)CC=C3C(C#N)=C(N)C2(C#N)C#N)c1 (stereo not drawn)
i,0.98,Cc1cccn2c(=O)c3cc(C(=O)NCCCN4CCCC4=O)n(C)c3nc12
i,0.73,O=C(Cc1ccccc1)NC(Nc1cccc2ccccc12)C(Cl)(Cl)Cl (stereo not drawn)
i,0.15,Cc1ccc(C(=O)NC2CCS(=O)(=O)C2)cc1S(=O)(=O)N1CCOCC1 (stereo not drawn)
i,-0.05,Cc1cc(NC(=O)c2cc(-c3ccccn3)nc3c(Cl)cccc23)no1
i,0.25,Cc1ccc(C)c2[nH]c(=O)c(CN(Cc3cccs3)C(=S)NCc3ccco3)cc12
i,1.36,Cc1ccc(/C=N/NC(=O)C2(O)c3ccccc3-c3ccccc32)o1
i,0.73,Cc1onc(-c2ccccc2)c1C(=O)OCC(=O)NC(=O)c1ccccc1
i,1.11,COc1cc2c(cc1OC)C(C)N(C(=O)/C=C/c1cc(OC)c(OC)c(OC)c1)CC2 (stereo not drawn)
i,1.4,O=C(CNC(=O)c1cccc(F)c1)OCC(=O)N1CCCc2ccccc21
i,-1.4,O=C(NCc1ccco1)C(c1ccc(F)cc1)N(C(=O)Cc1cccs1)c1cccnc1 (stereo not drawn)
i,0.01,Cc1ccccc1NC(=O)CN1C(=O)c2cccnc2Oc2ccc(Cl)cc21
i,1.6,CC1CCCN(C(=O)COc2ccc(Nc3ccccc3)cc2)C1 (stereo not drawn)
-7.28*,0.68*,CC(=O)C(C(C)=O)c1c(Cl)c(O)c(O)c2c(C(=O)c3ccccc3)coc12
i,-1.24,CCCOC(=O)c1ccc(Oc2c(-c3ccc(O)cc3O)n[nH]c2C)cc1
i,-0.83,Oc1ccc(N2CCN(C(c3ccccn3)c3nnnn3C3CCCC3)CC2)cc1 (stereo not drawn)

New compounds follow
KCNQ2 block,KCNQ2 block baseline,structure
i,-0.17,O=C(NC1CCCCC1)NC1(C(=O)N2CCN3CCCC3C2)CCCCC1 (stereo not drawn)
i,0.32,Cc1ccccc1NC(=O)NNC(=O)c1ccc2ccccc2c1
i,0.25,O=[N+]([O-])c1ccc(CN2CCOCCOCCOCC2)cc1
i,-0.1,O=C(c1ccc2c(c1)OCO2)N1CCC(Cc2ccccc2)CC1
i,0.64,Cc1onc(-c2c(Cl)cccc2Cl)c1C(=O)N1C=CC(C(F)(F)F)=NCC1
i,2.53,O=C(Nc1ccc(Oc2ccc(NC(=O)C3CCCO3)cc2)cc1)C1CCCO1 (stereo not drawn)
i,0.53,O=C(O)CCNS(=O)(=O)c1ccccc1C(F)(F)F
i,-1.24,O=C(O)c1cc(-c2ccccc2Cl)n(-c2ccccc2)n1
i,1.49,CC(C)(O)C#Cc1ccc(CN2CCN(Cc3ccccc3)C(CCO)C2)s1 (stereo not drawn)
i,0.41,CC(C)(C)C(=O)NC(NC(=O)C(C)(C)C)c1ccc([N+](=O)[O-])cc1
i,-0.11,CCn1c(Nc2ccccc2Cl)nc2ccccc21
i,0.81,O=C(c1ccc(Cl)cc1)C1CCN(C(=O)c2ccccc2)CC1

Three entries out of the list, arranged by number of heavy atoms, rising.
KCNQ2 block,KCNQ2 block baseline,structure
i,-1.24,O=C(O)c1cc(-c2ccccc2Cl)n(-c2ccccc2)n1
i,0.81,O=C(c1ccc(Cl)cc1)C1CCN(C(=O)c2ccccc2)CC1
i,0.41,CC(C)(C)C(=O)NC(NC(=O)C(C)(C)C)c1ccc([N+](=O)[O-])cc1

(more compounds)
KCNQ2 block,KCNQ2 block baseline,structure
i,-0.77,COCCN1C(=O)N[C@@H](c2ccccc2)[C@@H](C(=O)OC)[C@H]1C
i,-0.47,O=C(CSc1nc2[nH]ncc2c(=O)n1-c1ccccc1)c1ccc2c(c1)OCCO2
i,-1.87,CCCCN(C)C(=O)C1CCCN(S(=O)(=O)c2ccc3c(c2)CC(C)N3C(=O)C2CC2)C1 (stereo not drawn)
i,0.74,Cc1oc(C(C)(C)C)cc1C(=O)N1CCN(c2ncccc2C(F)(F)F)CC1
i,0.6,O=C(Nc1nccs1)C(=O)c1c[nH]c2ccccc12
i,-0.63,Cc1cc(=O)n2nc(N3CCCC(C(=O)NCc4ccccc4C)C3)sc2n1 (stereo not drawn)
i,-0.22,COc1ccc(NC(=O)c2ccccc2N(Cc2ccccc2)S(C)(=O)=O)cc1
i,3.35,CCOc1c(Br)cc(C2CC(=O)Nc3cc(OC)c(OC)cc32)cc1OC (stereo not drawn)
i,-0.74,O=C(Cn1c(COc2ccccc2)nc2ccccc21)Nc1cccc(Cl)c1
i,0.78,CCCCn1c(N)c(N(CCOC)C(=O)COC(=O)CCOc2ccccc2)c(=O)[nH]c1=O
i,-1.56,CC(C)Cc1nc(N2CCN(C(=O)c3ccco3)CC2)c(C#N)c2c1CCC2
i,0.08,CCCCCNC(=O)c1ccc2c(=O)n(CCCOCC)c(=S)[nH]c2c1
i,1.05,COc1ccccc1-c1sc2ccccc2c1-c1ccc(C(C)=O)cc1
i,2.77,COc1cc(C2/C(=C(\O)c3ccc4c(c3)CC(C)O4)C(=O)C(=O)N2c2nnc(C)s2)cc(OC)c1OC (stereo not drawn)
i,-0.18,CCCCCc1ccc(S(=O)(=O)Nc2cc(C)ccn2)cc1
i,-1.76,O=S(=O)(NC1CCCCC1)c1ccc(N2CCOCC2)nc1
i,-0.32,O=C(O)COCC(=O)N1CCCN(c2ccc(C(F)(F)F)cn2)CC1
i,-0.23,CCOC(=O)Cc1csc(NC(=O)CCCCCN2C(=O)c3ccccc3C2=O)n1
i,0.26,COc1ccccc1C1CCN(Cc2ccc3ccccc3c2)CC1
i,1.22,CCOc1ccc(CNCc2ccccc2Cl)cc1
i,0.01,COC(=O)c1cc([N+](=O)[O-])c(-n2ccnc2)c([N+](=O)[O-])c1
i,-0.65,OC(CN1CCc2ccccc2C1)c1ccccc1 (stereo not drawn)
i,0.84,c1cncc(-c2nn[nH]n2)c1
i,0.03,Cc1cccc(NC(=O)c2cccc(N3C(=O)CCC3=O)c2)c1
i,-2.75,O=C1C2CCCCN2C(=O)N1CCCCN1CCN(c2ccccc2Oc2ccccc2)CC1 (stereo not drawn)
i,0.93,COc1cc(/C=C2\SC(=Nc3cccnc3)NC2=O)cc(OC)c1OC
i,1.52,COc1ccc(-c2nn(-c3ccccc3)cc2/C=C/C(=O)O)cc1[N+](=O)[O-]
i,1.43,CSc1ccc(S(=O)(=O)N2CCC(C(=O)NCCCn3ccnc3)CC2)cc1
i,0.9,CC(C)(C)n1nc2c(c1NC(=O)Cc1ccc(F)cc1)CS(=O)(=O)C2

High-throughput results (PubChem BioAssay)
